# Screens from PubChem.
# MgrA-DNA mod = S. aureus MgrA activity modulators, primary screen, biochemical, S. aureus Newman, fluorescence polarization; MgrA-DNA binding; inhibition, %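 (about 10 µg/mL by stock and volumes)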; actives 0.13% (n = 84,000);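 active means above 50% in either of two replicates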;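 further: 0% = protein plus DNA without compound and 100% = DNA alone without protein; higher means less MgrA bound to DNA so lower polarization; one replicate is shown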
# Sa helicase inh = inhibitors of S. aureus replicative helicase, primary screen, biochemical, fluorescence unwinding readout | actives 0.05% (n = 120,000) | replicative DNA helicase (DnaC/DnaB), Staphylococcus aureus | purified S. aureus helicase, fluorescence unwinding assay; about half of the hits fall short of the stated cut | inhibition, %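 (tested at about 80 µM)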;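 active means both duplicates at 50% or more, or one of them with a favoured structure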;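 further: 0% = mean of negative control wells and 100% = mean of positive control wells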
# The depositor's hits bear a star; · = not tested or not shown; & = joins results of further samples.
molecule,MgrA-DNA mod,Sa helicase inh
CCCCCCCCCCCCC1CCCC/C1=N/O (configuration not stated),-3.6,·
CC(C)(C)S(=O)(=O)c1ccccc1/C=N/O,0.6,-18
CCCC1O[C@@H]2CC3C4CCC5=CC(=O)C=CC5(C)C4[C@@H](O)CC3(C)[C@]2(C(=O)CO)O1 (some centres not stated),-0.5,·
CCc1cccc2c1NC1(CCCC1)CC2C (configuration not stated),-0.8,8
COc1ccc(S(=O)(=O)N(C)C(C)C(O)c2ccccc2)cc1 (configuration not stated),·,-7
Fc1ccccc1CN1CCC(CNc2nc(-c3ccccc3)no2)CC1,·,8
Cc1cc(C)n(CCCNCC(O)c2ccccc2)n1 (configuration not stated),·,-5
CCCCCOc1ccc(C(=O)NN)cc1,0.7,·
Cc1cc(OCC(=O)NN)no1,·,2
CN(C)c1cccc(NC(=O)c2cccs2)c1,-1.2,-7
CC(=S)Nc1c(O)[nH]c2ccccc12,-2.6,5
COc1cc(/C=C2\C(=O)NC(=S)N(c3ccc(C)cc3)C2=O)ccc1OCC(=O)O,14,·
COc1ccccc1-c1nc(CSc2ccccc2N)no1,-1.1,·
O=C1CCCCC1C(=O)c1ccccc1 (configuration not stated),-1.1,·
CCN(CC)c1ccc(C2(O)C(=O)c3ccccc3C2=O)cc1,-1.5,25
CCCCCn1c(N)c(C#N)c2nc3ccccc3nc21,·,0
NS(=O)(=O)c1ccc(CNC(=O)C23CC4CC(CC(C4)C2)C3)cc1,-1.1,19
O=S(=O)(c1ccccc1)C(Cc1ccc(F)cc1)c1ccco1 (configuration not stated),-0.8,-19
CCN(CC)S(=O)(=O)c1ccc(Sc2cccc(C(F)(F)F)c2)nc1,·,16
O=S(=O)(CCSc1ccccc1)c1ccccc1,1.5,·
O=C(Nc1ccccc1)OCCCc1ccccc1,1.9,13
O=C(NCSc1nc2ccccc2o1)c1cc2ccccc2o1,·,-16
Cc1ccc2oc(=O)c3cc(C(=O)NCCN4CCCCCC4)sc3c2c1,·,13
O=c1c(=O)n(-c2cccc(Cl)c2)ccn1Cc1cccc(C(F)(F)F)c1,-1.3,1
Cc1nn(C)c(Cl)c1NC(=O)OCC(C)(C)C,2.4,·
O=C(COc1ccc(-c2nnco2)cc1)Nc1cc(C(F)(F)F)ccc1-n1cncn1,·,7
Cc1nn(C(C)C(=O)O)c2ccccc12 (configuration not stated),·,5
O=C(CCCN1C(=O)c2cccnc2Oc2ccc(Cl)cc21)N1CCCCC1,·,16
CCCCNC(=O)c1nn(-c2ccc(OC)cc2)c(=O)c2ccccc12,·,12
CCCc1n[nH]c(=O)c2c1nnn2Cc1ccccc1F,·,4
COc1ccc(-c2cc(C(=O)Nc3ccccc3OC)c3ccccc3n2)cc1,1.8,·
Cc1nnc(NCCc2ccccc2)[nH]c1=O,-0.5,8
COc1cc(-c2c(C#N)c(N)nc3sc(C(N)=O)c(N)c23)cc(OC)c1OC,-1.6,·
CCOC(=O)c1c(N)n(C(C)CC)c2nc3ccccc3nc12 (configuration not stated),·,10
Cc1c(C)c(C)c(C(=O)c2ccccc2C(=O)NCc2cccnc2)c(C)c1C,-0.6,·
Cc1ccc(C2CC(c3ccc(F)cc3)n3ncnc3N2C(=O)C2CC2)cc1 (configuration not stated),-1.3,15
O=C(CSc1nnc(COc2cccc3cccnc23)o1)N1c2ccccc2CCc2ccccc21,0.5,-3
OCc1nc2ccccc2n1Cc1ccc(Cl)cc1,0.1,13
COc1ccccc1NC(=O)c1cc2ccccc2c(C=Nc2ccc(NC(C)=O)cc2)c1O,2.5,1
CC1CCN(S(=O)(=O)c2ccc3[nH]c(=O)[nH]c3c2)CC1,0.6,7
CCOc1ccccc1/C=N\N1CCN(c2ccccc2)CC1,·,27
Cc1ccn2cc(C(=O)OC(C)c3nnc(-c4cccs4)o3)nc2c1 (configuration not stated),·,-4
COc1ccc2c(c1OC)C(=O)N(c1cccc(Cl)c1)C2=O,·,30
Cc1cc(NS(=O)(=O)c2ccc(NS(C)(=O)=O)cc2)no1,·,15
Cn1nc(C(C)(C)C)cc1C(=O)NCc1cc(F)cc2c1OCOC2,-1.7,·
COc1ccc(/C=C2\SC(N)=NC2=O)cc1OC,·,0
CC(=O)OCc1cc(=O)n2ccsc2n1,·,10
CN(CC(=O)N1CC=C(c2ccccc2)CC1)S(=O)(=O)c1ccc2nc(-c3ccccc3)[nH]c2c1,-0.5,6
CN1C(=O)CC(C(=O)Nc2ccccc2F)SC1=Nc1cccc(C(F)(F)F)c1 (configuration not stated),-1.7,·
O=C(COC(=O)c1ccc(O)cc1)Nc1cccc(I)c1,·,4

# Going on with the list.
molecule,MgrA-DNA mod,Sa helicase inh
S=c1n(CN2CCOCC2)c2ccccc2n1-c1ccccc1,·,20
Cc1cc(NC(=O)c2c(-c3c(Cl)cccc3Cl)noc2C)c([N+](=O)[O-])cc1C,2.7,·
CCCn1c(SCc2nc(-c3ccc(OCC)cc3)no2)nnc1-c1ccc(Cl)cc1,·,-16
Cc1ccc(Sc2c(C)n[nH]c2C)cc1,0.6,7
O=C(COc1ccccc1)Nc1nncs1,-1.9,1
CCOc1ccc2cc(-c3nnc(-c4cccc(Br)c4)o3)c(=O)oc2c1,-0.6,·
O=C1CS/C(=N/C(=O)NC2CCCCC2)N1,·,13
CC(=O)OC[C@H]1O[C@@H](n2ncc(=O)[nH]c2=O)[C@H](OC(C)=O)C1OC(C)=O (some centres not stated),·,4
Cc1cc(Cl)c(O)c(-n2nc3ccccc3n2)c1,-1.5,10
CC(=O)OCC(=O)c1ccc(NC(=O)c2ccccc2)cc1,5.7,16
COCCOC(=O)Nc1nc2ccc(OC)cc2s1,5.2,·
Nn1c(COc2cccc(Br)c2)nnc1SCC(=O)N(C1CCCC1)C1CCS(=O)(=O)C1 (configuration not stated),·,-3
CN(C)CC1CCCCC1OC(=O)c1ccc(Cl)cc1 (configuration not stated),0.0,-27
O=C(NC(=S)Nc1cccc(Cl)c1Cl)c1cccc([N+](=O)[O-])c1,-1.7,·
CC(C)n1nc(C(=O)Nc2ccccc2N2CCOCC2)c2ccccc2c1=O,·,3
CC(C)(C)Sc1ccc(SC#N)s1,5.9,5
O=c1c2c([nH]c(=S)n1-c1ccc(F)cc1)CCS2,·,-24
O=C(CSc1nc(-c2ccco2)nc2cc(=O)[nH]n12)Nc1ccccc1,·,8
CCN(CC)CCNc1nc(-c2ccco2)c2c(c1C#N)CC(C)(C)OC2,-1.9,1
COc1ccc(Cl)cc1-n1c(C)cc(C(=O)OCC#N)c1C,·,6
CCSc1nc2sc3c(c2c(=O)n1CCc1ccccc1)CCC3,1.9,7
CC(C)c1cc2cc3ccc(=O)oc3cc2o1,·,-29
Cc1cccc(C(=O)NC(=NCCc2cnc[nH]2)Nc2nc(C)cc(C)n2)c1,-0.2,13
Cc1cc(=O)oc2cc(Oc3nncc4ccccc34)ccc12,·,-7
O=C(CCCN1CCOCC1)c1ccc2c(c1)OCCO2,1.1,4
COc1cccc(Cl)c1NC(=O)N1CCN(c2cc(C)nc3ccccc23)CC1,0.9,·
CC(=O)Nc1nnc(-c2ccc(Cl)cc2)s1,·,12
CC1=C(C)CC(C(=O)N2CCN(Cc3ccccc3)CC2)C(C(=O)O)C1 (configuration not stated),4.6,10
COC(=O)CN(n1cnnc1)S(=O)(=O)c1ccc(C)cc1,-0.1,10
O=C(NCCN1CCOCC1)C1CCN(C(=O)c2cc3sccc3n2Cc2ccc(F)cc2)CC1,·,-1
CCOc1cccc2sc(=NC(=O)c3ccc(C#N)cc3)n(CC)c12,·,-12
CCOc1ncccc1C(=O)Nc1ccc2c(c1)OCCO2,·,-2
CCOC(=O)c1c(NC(=O)c2cc(=O)c3ccccc3o2)sc(C)c1C,·,17
COc1ccc(C2Nc3ccccc3C(=O)N2Cc2ccccc2)cc1COc1ccc([N+](=O)[O-])c(C)c1 (configuration not stated),-0.3,·
Cc1cc(C)c(C#N)c(SCC(=O)c2ccc(Br)cc2)n1,3.6,·
Cc1ccc2[nH]c(=O)c(CNc3ccc(N4CCN(C)CC4)cc3)cc2c1,·,-7
CN(C)S(=O)(=O)c1ccc2c(c1)oc(=O)c1cc(S(=O)(=O)N(C)C)ccc12,0.8,7
Clc1cc(N2CCOCC2)ncn1,0.3,-8
O=C(/C=C/c1ccc2c(c1)OCCO2)NCc1ccco1,·,2
CN(C)c1ccc(C(=O)NCc2cc(Cl)c3c(c2)OCCCO3)cc1,·,5
COC(=O)C1(c2ccccc2)NC(c2cccs2)C2C(=O)N(C)C(=O)C21 (configuration not stated),-3.6,3
CCn1nnc2cc(C(=O)N(C)Cc3ccc(-c4ccc(Cl)cc4)o3)ccc21,·,19
N#CCCNS(=O)(=O)c1ccc(C(=O)NCC23CC4CC(CC(C4)C2)C3)cc1,·,-5
O=C(NCC1(N2CCCCC2)CCCCC1)c1ccc(N2CCCC2=O)cc1,·,-7
CC12CCC(C/C1=N\Nc1nc(O)c(C3=c4ccccc4=NC3=O)s1)C2(C)C (configuration not stated),·,17
CC(C)C(Sc1ccc2c(c1)OCCO2)C(=O)NC(N)=O (configuration not stated),·,1
Nc1nc(CSc2nc3ccccc3s2)nc(N2CCOCC2)n1,·,7
Cc1ccc(OCCSc2ncnc3ccccc23)cc1,4.0,12
Cc1cc(C)n(-c2nc3ccccc3[nH]c2=O)n1,0.7,-11&0
O=C1C2CC3CC(C2)C(C(=O)O)C1C3 (configuration not stated),0.1,·

# The list continues.
molecule,MgrA-DNA mod,Sa helicase inh
O=C(O)COc1ccc2c(c1)oc(=O)c1ccccc12,·,-8
CC(C)C(=O)Nc1cc(Cl)cc(Cl)c1,1.8,·
FC(F)Oc1ccc(/C=N/n2cnnc2)c(OC(F)F)c1,·,10
Cc1n[nH]c(C)c1Sc1nccc(-c2cccnc2)n1,-0.2,·
COc1ccc(N2CCN(Cc3nnnn3C3CCCCC3)CC2)cc1,0.6,6
Cn1c(CCNC(=O)C(C)(C)C)nc2ccccc21,·,-16
CC(C)N1C(=O)CCC1C(=O)O (configuration not stated),·,7
O=C1NCC(COc2ccc3ccccc3c2)O1 (configuration not stated),-1.6,10
Cc1sc(NC(=O)C2CCCCC2)c(C(N)=O)c1C,-0.3,15
Cn1c(=O)c2c(-c3ccccc3Br)n(CC(N)=O)cc2n(C)c1=O,·,4
Nc1ccc(I)cc1C(=O)O,-0.2,-9
CC(C)NC(=S)NC(=O)c1cccnc1,-2.5,12
O=C(O)C1CCC(=O)N1Cc1ccc(F)cc1 (configuration not stated),·,21
O=S(=O)(NC1=NCCCCC1)c1ccc(F)cc1,·,-5
COC(=O)c1c(N)sc2c1C(C(=O)OC)CC2 (configuration not stated),0.4,-15
N#Cc1oc2ccccc2c1N,·,-8
Cc1nnc(NC(N)=S)s1,0.0,·
CCOc1ccc(-n2nc3ccc(NC(=O)c4ccc5c(c4)OCCO5)cc3n2)cc1,0.5,·
O=C(N/N=C/c1ccc(O)c(O)c1O)c1cccc(S(=O)(=O)Nc2ccccc2Cl)c1,·,16
CCOC(=O)c1c(N)sc(C)c1-c1ccccc1,-2.0,·

# Shown with two lines to a compound: entries from further up
# Every second line gives: MgrA-DNA mod	Sa helicase inh
> O=C(N/N=C/c1ccc(O)c(O)c1O)c1cccc(S(=O)(=O)Nc2ccccc2Cl)c1
 : ·	16
> CCOC(=O)c1c(N)sc(C)c1-c1ccccc1
 : -2.0	·

# Additional records follow:
molecule,MgrA-DNA mod,Sa helicase inh
O=C(CSc1ccccc1)OCc1nnc(C2COc3ccccc3O2)o1 (configuration not stated),·,10
Cc1ccc(CNC(=O)c2ccc3c(c2)NC(=O)CS3)n1C,·,-21
CCCN(CCC)C1=CC(=O)C(C(C)(C)C)=CC1=O,5.5,7
N#CCSc1nc2ccccc2c(=O)n1CCCC(=O)NCc1ccco1,-0.1,-5
C/C(=N\NC(N)=S)c1cccnc1,·,-29
CCOc1cc(C=N/C(C#N)=C(\N)C#N)ccc1O,-2.2,·
O=c1[nH]c(SCc2ccc(C(F)(F)F)cc2)nc2c1cnn2-c1ccccc1,-0.8,11
COc1ccc(N=C2CCCN2CC(N)=O)cc1,0.4,7
O=[N+]([O-])c1cccnc1Sc1ccccc1,3.5,·
CCCn1c2ccccc2c2cnn(CC(=O)N3CCCc4ccccc43)c(=O)c21,·,-33

# Whole records, looked up by structure.
# Results for O=C(CSc1nnc(COc2cccc3cccnc23)o1)N1c2ccccc2CCc2ccccc21 : MgrA-DNA mod = 0.5; Sa helicase inh = -3
# Results for CC(C)(C)Sc1ccc(SC#N)s1 : MgrA-DNA mod = 5.9; Sa helicase inh = 5

# Other results follow.
molecule,MgrA-DNA mod,Sa helicase inh
O=C(O)CN1CC(=O)Oc2ccccc21,·,-22
CCOc1ccc(CCNC(=O)Cc2ncn[nH]2)cc1OCC,2.7,-1
Cc1c(C(=O)NCCc2ccccc2)oc2ccccc12,-2.7,1
CN(C)CCN(Cc1ccccc1)Cc1ccc(O)cc1,-1.9,1
COc1ccc(C(=O)CSc2nccn2C)cc1,·,4
O=S(=O)(c1cc(Br)c(Cl)s1)N1CCSCC1,-2.0,·
CCCCN1Cc2c(n(CC(=O)OCC)c3cc(-c4ccccc4)nn3c2=O)C1=O,·,-13

# An excerpt; rates above refer to the full screens.
